Screens (PubChem)
Mtb betalactam – beta-lactam sensitization of Mtb H37Rv. M. tuberculosis H37Rv growth with meropenem, percent inhibition; hits of this screen are not shown here. inhibition, % at 25 µM. hit rate 0.27% among 330,000. AID 434955;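 active = about 74% or more and at least 40 points above the plate without the antibiotic, then above 30% in a dose series; inconclusive = first-round hits that could not be retested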;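 also: growth measured after seven days incubation then overnight dye step; 0% = bacteria only wells and 100% = bacteria with antibiotic; twin plates without the antibiotic show which effects depend on it; some results filed as inactive read as strong as hits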
YopH inh – blocks Yersinia enterocolitica YopH tyrosine phosphatase | fluorescence Ex485/Em525 | AID 898 | inhibition, %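 (about 10 µM by stock and volumes)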 | hit rate 0.16% among 140,000;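 active = inhibition of 50% or more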;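 also: controls were vehicle for no effect and minimum signal wells for full effect; inactives centre near -20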
Arbovirus inh – arbovirus infection inhibition. arbovirus infection cell-based antiviral screen. inhibition, % at 10 µM. hit rate 0.37% among 200,000;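 active = inhibition from about 30%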;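 also: bluetongue infection of BSR cells; cell survival read as ATP light after 72 h; 0% = infected wells without compound and 100% = uninfected wells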
Mtb H37Rv – M. tuberculosis H37Rv growth inhibitors, H37Rv strain (AID 1626). M. tuberculosis H37Rv growth inhibition; higher % means a stronger effect. inhibition, % at 10 µM, or IC50 in µM where a hit was titrated. hit rate 0.95% among 220,000;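 active = confirmed in a dose series; inconclusive = inhibition above 80% but not taken into the dose series; inactive = below 80% or under 30% at every dose of the series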;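 also: bacteria incubated seven days before Alamar blue readout; 0% = bacteria only wells and 100% = bacteria with antibiotic wells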
RecA intein inh – blocks M. tuberculosis RecA intein splicing | P9WHJ3 | cell-free RecA intein splicing, fluorescence | inhibition, %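 (about 9 µM by stock and volumes)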 | hit rate 0.75% among 290,000; in the data active = inhibition above about 30%; inconclusive = no clear call, values can overlap the other calls;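 also: 0% = vehicle wells and 100% = reference inhibitor control wells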
Target sequence (P9WHJ3 whole entry, looked up): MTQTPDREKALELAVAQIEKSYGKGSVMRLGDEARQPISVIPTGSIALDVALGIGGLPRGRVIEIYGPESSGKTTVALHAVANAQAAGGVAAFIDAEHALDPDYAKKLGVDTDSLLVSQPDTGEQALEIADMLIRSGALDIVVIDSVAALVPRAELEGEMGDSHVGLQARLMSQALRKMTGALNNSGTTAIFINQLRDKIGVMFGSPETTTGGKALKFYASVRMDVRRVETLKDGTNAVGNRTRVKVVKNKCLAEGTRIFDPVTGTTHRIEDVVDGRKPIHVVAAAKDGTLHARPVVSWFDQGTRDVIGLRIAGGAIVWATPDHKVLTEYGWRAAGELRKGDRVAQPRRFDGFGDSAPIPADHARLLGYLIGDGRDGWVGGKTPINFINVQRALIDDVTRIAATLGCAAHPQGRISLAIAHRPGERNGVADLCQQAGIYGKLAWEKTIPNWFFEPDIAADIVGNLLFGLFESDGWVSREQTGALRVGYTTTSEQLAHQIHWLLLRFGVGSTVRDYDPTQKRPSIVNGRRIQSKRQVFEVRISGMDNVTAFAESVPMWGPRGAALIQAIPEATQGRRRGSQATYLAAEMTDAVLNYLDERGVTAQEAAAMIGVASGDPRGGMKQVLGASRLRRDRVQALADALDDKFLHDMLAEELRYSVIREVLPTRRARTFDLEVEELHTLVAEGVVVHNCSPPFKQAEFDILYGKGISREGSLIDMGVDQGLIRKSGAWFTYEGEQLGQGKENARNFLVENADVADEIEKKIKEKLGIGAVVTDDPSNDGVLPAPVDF
Arbovirus inh repeat – further read-out of Arbovirus inh, marked with its call; inhibition, %; measured here: 10K subset replicate screen; many hits read low in the repeat;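 first of two repeat runs on a subset; 0% = infected and 100% = uninfected wells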
Active calls of the source: *; ? = inconclusive; / = no result given. This is a subset; count on the stated rates, not on these rows.

SMILES	Mtb betalactam	YopH inh	Arbovirus inh	Mtb H37Rv	RecA intein inh	others
O=C(NCC1CCCO1)C(C(=O)c1ccccc1)n1ccccc1=O (configuration not stated)	6	-11	12	-2%	-0.3
N#CCC(=O)N/N=C/c1cn(Cc2ccccc2C#N)c2ccccc12	-8	/	/	-15%	/
COc1ccccc1CNC(=O)C1CCN(S(=O)(=O)N2CC(C)CC(C)C2)CC1 (configuration not stated)	1	-22	0	-9%	/
CCCCNC(=O)c1cc2nc(-c3ccccc3)cc(C(F)(F)F)n2n1	0	/	/	/	-4.9
Cc1ccc(NC(=O)c2cc3c(CO)cnc(C)c3oc2=Nc2cccc(C(N)=O)c2)cc1	6	/	/	/	-0.5
O=C(Nc1cccc(S(=O)(=O)N2CCCCC2)c1)c1ccc(OCC2CCCO2)cc1 (configuration not stated)	-6	/	-9	-4%	1.2
CC(C)Oc1ccc(C(=O)Nc2ccccc2N2CCOCC2)cc1	16	/	-4	7%	0.9
Oc1ccc(N=Nc2nccs2)c(O)c1	31	/	/	37%	-2.6
COC(=O)c1ccccc1NS(=O)(=O)c1c(C)noc1C	4	/	/	/	1.0
COc1ccc(OC)c(NC2c3ccccc3C(=O)N2c2cccnc2)c1 (configuration not stated)	5	-46	4	-2%	2.1

Next part; it opens with the 3 that closed the last part.
SMILES	Mtb betalactam	YopH inh	Arbovirus inh	Mtb H37Rv	RecA intein inh	others
Oc1ccc(N=Nc2nccs2)c(O)c1	31	/	/	37%	-2.6
COC(=O)c1ccccc1NS(=O)(=O)c1c(C)noc1C	4	/	/	/	1.0
COc1ccc(OC)c(NC2c3ccccc3C(=O)N2c2cccnc2)c1 (configuration not stated)	5	-46	4	-2%	2.1
Cc1cc(C)c(S(=O)(=O)NCCn2c(C)cc3ccccc32)c(C)c1	-9	-36	-12	9%	3.1
O=C(Cn1c(=O)oc2cc(S(=O)(=O)N3CCCC3)ccc21)N1CCc2ccccc2C1	-7	-5	-4	-1%	0.8
COc1cc(CN2CCC(C(=O)NC3CCCC3)CC2)ccc1O	-8	-15	0	-2%	-1.9
C#CCOC(=O)Nc1ccc(=O)n(Cc2c(Cl)cccc2Cl)c1	-15	-35	-2	0%	3.0
O=C(N/N=C/c1sc(N2CCCCC2)nc1-c1cccs1)c1cccnc1	24	/	-12	6%	-18
COc1ccc(N(CC(=O)Nc2c(C)n(C)n(-c3ccccc3)c2=O)S(=O)(=O)c2ccccc2)cc1OC	0	-35	-4	-3%	-8.6
Cc1ccccc1-c1noc(CCC(=O)NCCc2ccccc2)n1	-10	/	/	/	1.9
CC(C)(C)c1ccc(NC(=O)COc2ccc(-n3ccnc3)cc2)cc1	99	-6	-5	40%	5.5
Cc1nn(C(=O)c2nn(C)cc2[N+](=O)[O-])c(C)c1Br	-4	/	3	-3%	-0.8
COc1ccc(CCNC(=O)c2cc(-c3ccccc3O)n[nH]2)cc1OC	-5	-2	1	-10%	-3.6
CCOC(=O)Cc1[nH]nc2c1C(c1cccc(OC)c1OC)C(C#N)=C(N)O2 (configuration not stated)	-3	-18	-5	/	45*
Cc1cn2c(nc(=O)c3cccnc32)s1	3	-30	1	-6%	-0.5
CCN1CCN(CCCNC(=O)CNC(=O)c2nn(-c3ccc(OC)cc3OC)c(=O)c3ccccc23)CC1	-1	/	/	/	0.6
O=C(Nc1ccc(OC(F)F)cc1)Nc1cccc(C(F)(F)F)c1	85	-18	-23	3%	2.2
CCOc1ccc(NC(=O)CSc2nnc(C(C)C)n2CC)cc1	53	-21	3	-9%	1.1
Cc1cc(C)n(Cc2ccc(NC(=O)c3ccc(COc4ccccc4Br)cc3)cc2)n1	90	-28	-28	/	3.9
Cc1ccc(S(=O)(=O)N(C)CCCC(=O)N2CCOCC2)cc1	-4	-28	5	-3%	-2.0	Arbovirus inh repeat=-6
OC1CNCc2cc3c(cc21)OCCO3 (configuration not stated)	-3	-20	4	7%	-11
Cc1cccnc1NC(=O)CCc1c[nH]c2ccccc12	-2	/	/	/	2.7
O=C(CSc1nnc(-c2ccncc2)n1CC1CCCO1)Nc1cccc(O)c1 (configuration not stated)	1	-5	5	-5%	1.0
Cc1ccc(C(=O)Nc2ccc(F)cc2)o1	5	-12	-6	30%	-1.1
FC(F)Oc1ccccc1/C=N/Nc1nc2ccccc2o1	1	/	/	/	-1.5
COc1cc(/C=C/C(=O)OCC(=O)c2c(N)n(C)c(=O)n(C)c2=O)ccc1OCC#N	-6	/	10	3%	1.4
CC1Cc2cc(S(=O)(=O)N3CCC(C(=O)N4CCCCC4)CC3)ccc2N1C(=O)C1CC1 (configuration not stated)	-5	/	/	/	3.4
COC(=O)c1cc(=O)n2c(-c3ccccc3)csc2n1	-11	-29	1	/	1.1
CCOc1ccc(C(=O)NCC2CCCN2S(=O)(=O)c2cccs2)cc1 (configuration not stated)	5	/	/	/	0.9
O=C(Nc1ccccn1)C1(c2cccs2)CCOCC1	-3	-9	17	7%	-1.8
COc1ccccc1C1/C(=C(\O)c2ccc3c(c2)OCCO3)C(=O)C(=O)N1Cc1cccnc1 (configuration not stated)	3	/	/	/	1.6
Cc1ccc(NC(=O)CC2=NC(=O)C(CC(=O)Nc3ccccc3C)S2)cc1 (configuration not stated)	4	/	-8	-3%	2.2
O=C(Cc1ccc(F)cc1)N/N=C/c1ccccn1	6	-48	-6	-2%	/
CN(C)c1ccc(-c2noc(C3CCN(S(=O)(=O)c4ccc(C(=O)O)cc4)CC3)n2)cc1	/	-47	/	-3%	-0.3
COc1ccc(OC(=O)COc2cc(C)ccc2C)cc1	-3	/	/	/	15
CCC(C)(C(=O)NC1CCCCC1)N(Cc1cccs1)C(=O)Cc1cccs1 (configuration not stated)	?	-16	-7	-6%	-1.2
O=C(O)c1ccc(N2CCCCS2(=O)=O)cc1	-2	/	1	-4%	0.4
O=Cc1c(Sc2ccccn2)nc2ccccn2c1=O	-5	-23	-6	4%	23
CC(C)c1c(O)nc(SCCC(=O)O)[nH]c1=O	0	-44	2	-4%	-0.7
CC(=O)Nc1ccc(S(=O)(=O)N(C)CC(=O)OCC(=O)N(C)C2CCS(=O)(=O)C2)cc1 (configuration not stated)	-9	/	/	/	-2.2
O=c1[nH]c(=O)n(Cc2ccccc2)c2nc(-c3ccc(Oc4ccc(F)cc4)c([N+](=O)[O-])c3)n(CCO)c12	89	-11	-33	19%	9.2
Cc1ccccc1NC(=O)n1ncc2cc(Cl)ccc21	4	/	/	/	-1.5
Cc1ccccc1C(=O)NC(=S)NCc1cccnc1	-2	/	2	-4%	-1.0
COc1ccccc1CNc1ncccc1[N+](=O)[O-]	6	/	/	/	-1.2
O=C(Cc1cccc2ccccc12)Nc1ccc(OC(F)F)c(Cl)c1	3	-25	0	7%	2.0
COc1cc(CN(C(=O)c2ccco2)c2ccc(C)cc2)ccc1O	2	-30	-4	0%	-1.7
CCC1CCCCN1Cc1cc(OC)c(O)c([N+](=O)[O-])c1 (configuration not stated)	-2	8	0	-1%	-0.4
COc1ccc(S(=O)(=O)N2CCOCC2)cc1NC(=O)Cc1coc2cc(C)c(C)cc12	-5	/	/	/	1.2
COc1ccc(C(=O)O/N=C(\N)c2ccccc2)c(OC)c1	21	-26	5	5%	6.3
O=C1NN(c2cccc(Br)c2)C(=O)/C1=C/c1cccs1	7	/	/	25%	-1.7
CCCCCCCn1c(=N)n(CC(O)c2ccco2)c2ccccc21 (configuration not stated)	3	/	-31	-3%	1.2
COc1cc(SC)ccc1C(=O)NCCNC(=O)c1nonc1N	7	/	/	/	2.7
COc1cc(CC(=O)NCC2COc3ccccc3O2)cc(OC)c1OC (configuration not stated)	1	/	6	-2%	7.5

Grouped by structure: those above containing a cyano group.
SMILES	Mtb betalactam	YopH inh	Arbovirus inh	Mtb H37Rv	RecA intein inh	others
N#CCC(=O)N/N=C/c1cn(Cc2ccccc2C#N)c2ccccc12	-8	/	/	-15%	/
CCOC(=O)Cc1[nH]nc2c1C(c1cccc(OC)c1OC)C(C#N)=C(N)O2 (configuration not stated)	-3	-18	-5	/	45*
COc1cc(/C=C/C(=O)OCC(=O)c2c(N)n(C)c(=O)n(C)c2=O)ccc1OCC#N	-6	/	10	3%	1.4

The list goes on.
SMILES	Mtb betalactam	YopH inh	Arbovirus inh	Mtb H37Rv	RecA intein inh	others
Cc1ccc(C)c(N=Nc2ccc(O)c3ncccc23)c1	95	/	-23	68µM*	1.6
Cc1cc(Cl)c(OCCCNCc2ccccc2)c(Br)c1	69	-26	-36	6%	-1.6
Cc1ccccc1NC1=NS(=O)(=O)c2ccccc21	-14	-31	6	-3%	-1.2
O=C1NN(c2ccccc2)C(=O)/C1=C\c1ccc(-c2cc([N+](=O)[O-])ccc2O)o1	/	/	-34	-7%	/
C=CCn1c(SCC(=O)Nc2ccc(F)cc2)nc2cc(C(=O)O)ccc2c1=O	3	/	11	-5%	-0.3
COCCCNC(=O)CC(=O)N/N=C\c1ccc(SC)cc1	-1	/	3	2%	-1.2
CCCCCn1c(SCC#N)nc2cc(C(=O)NCC3CCCO3)ccc2c1=O (configuration not stated)	15	5	6	-7%	-4.5
CCc1ccc(NC(=O)c2ccc(OC)c([N+](=O)[O-])c2)cc1	7	-25	-16	2%	-1.4
C=CCSc1nnc(N2C(=O)C(O)=C(C(=O)c3ccco3)C2c2ccc(F)cc2)s1 (configuration not stated)	?	/	/	/	-3.8
O=[N+]([O-])c1ccccc1/C=C/C=N/n1c(-c2ccco2)n[nH]c1=S	6	/	5	-2%	-3.1
COCCNC(=O)Cn1cc(/C=C(\C#N)C(=O)NC2CCCC2)c2ccccc21	3	/	/	/	-4.8
Cc1nc2ccccc2c(C)c1CC(=O)N(CC(C)C)c1c(N)n(Cc2ccccc2)c(=O)[nH]c1=O	-3	/	/	/	4.0
CC1CN(C)C(c2ccccc2)C(C)C12NC(=O)NC2=O (configuration not stated)	-5	-10	2	-10%	0.4
CCN(CC)C(=O)CSc1nnc(-c2ccncc2)n1N	5	2	2	-1%	-1.5
COc1ccc(C(C)=O)cc1Cc1c(O)[nH]c(=S)[nH]c1=O	2	/	/	/	-0.9
Cc1c(Cl)cccc1NC(=S)NCc1ccco1	-5	/	/	-5%	0.7
COc1cc(CNC2CCC(C)C2)cc(OC)c1 (configuration not stated)	-6	-29	-3	-3%	-3.4
Cc1ccc(NC(CC(=O)c2ccccc2)c2ccc(F)cc2)cc1 (configuration not stated)	85	-19	-10	10%	1.7
CCOC(=O)c1ccc(NC2=CC(=O)CC(c3ccco3)C2)cc1 (configuration not stated)	52	/	3	79%	1.3
CC1CC(=O)N(c2ccc(NCCc3ccccc3)c([N+](=O)[O-])c2)C1=O (configuration not stated)	18	/	2	4%	4.3
Cc1cccc(C(=O)Nc2nnc(SCC(=O)Nc3ccc4c(c3)oc3ccccc34)s2)c1	3	-14	-12	10%	2.4
Cc1ccc(S(=O)(=O)/N=C(\N)Nc2nc(C)c3cc(C)c(C)cc3n2)cc1	22	-22	5	-1%	0.3
O=C(CSc1ncccn1)N/N=C/c1ccc(OC2CSC2)cc1	14	/	-1	0%	1.0
COc1ccc(CN2CCN(Cc3cn(C)nc3-c3ccccc3)CC2CCO)c(C)c1C (configuration not stated)	-2	/	-20	-3%	-0.7
CCOc1ccc(Br)cc1S(=O)(=O)N1CCCN(C)CC1	-5	/	/	/	0.1
Cc1cc2c(c(SCC(N)=O)n1)C(=O)OC2	-8	/	3	-10%	-1.1
Cc1nnc(SCC(=O)NC2CCCC2)s1	0	-5	5	2%	-1.2
O=C(Cc1cccs1)Nc1ccccn1	-12	-40	7	/	7.0
CC1(C)Cc2c(c(N3CCOCC3)nc3snc(Br)c23)CO1	1	-31	17	-10%	2.8
O=C(CCS(=O)(=O)c1ccccc1)NC12CC3CC(CC(C3)C1)C2	-14	-9	2	8%	0.1
O=C(NC(O)C(=O)c1ccc(F)cc1)c1ccc(F)cc1 (configuration not stated)	-10	/	/	/	-1.5
Cc1ccc(S(=O)(=O)N2CCN(CCNC(=O)C(=O)NCc3ccccc3)CC2)cc1	-5	/	/	/	0.0
O=C(O)C1C2CCC(C2)C1C(=O)Nc1nc2ccccc2s1 (configuration not stated)	0	-21	12	13%	-0.8
Cc1oc(C(N)=O)cc1COc1ccc(C(N)=O)cc1	-8	/	/	-6%	0.4
CC(C)(C)[C@]1(O)C[C@@H]2OC(=O)C[C@@]23C(=O)O[C@@H]2OC(=O)[C@H](O)[C@]213	5	-41	9	-8%	-0.8
O=C(NCCc1ccccc1)C(=O)c1cn(CC(=O)N2CCCC2)c2ccccc12	-3	/	/	/	1.2
